Bioassay records (PubChem BioAssay)
TRPML1 agonist – qHTS for Agonists of the Human Mucolipin Transient Receptor Potential 1 (TRPML1); Mucolipin-1 (Homo sapiens), Q9GZU1; TRPML1-expressing cells, Ca2+ dye fluorescence, FDSS; host cell line not named in the record; reference of the full effect not given here; activation, % (no concentration beside the values); hit rate 0.12% among 410,000; AID 624414, 2012; in the data active = activation above about 50%; inconclusive = about 30% to 50%; inactive = below about 30%; note: 0% is about no effect; the text of the record puts the active cut at 80%
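In this qHTS format, compounds were pin-transferred onto Ca8-dye-loaded TRPML1-DL cells induced with Tet overnight, and intracellular Ca2+ fluorescence was recorded kinetically for 110 s after a 10 s baseline. A subsequent 4uM final 54-4 (EC80) addition followed by a second 110 s read served as the antagonist phase.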
D2 ag – Beta-Arrestin HTS for Positive Allosteric Modulators of the Human D2 Dopamine Receptor: Agonists; AID 624465, 2012; activation, % (test concentration not listed); hit rate 0.084% among 360,000; DiscoveRx PathHunter D2 beta-arrestin, luminescence, 90 min; 100% = 57 uM dopamine signal; in the data active = activation above about 40%; inconclusive = about 15% to 40%; inactive = below about 15%; note: compound concentration not given in the record; the text of the record calls up to 30% inactive
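DiscoveRx PathHunter D2 beta-arrestin cells (2,100/well) attached overnight, then compound-stimulated 90 min at 37 C in HBSS/10 mM HEPES/0.1% Tween-20 buffer; beta-galactosidase complementation read by luminescence after 1 h at ambient temperature. Dopamine 57 uM final (EC100) as control.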
PINK1 modulator – A Quantitative High throughput Screen to Identify Chemical Modulators of PINK1 Expression. PINK1 immunofluorescence, high-content cytometry, 24 h. Potency, µM (titrated, usually from 76.6 µM), inactives show top-dose activation (PINK1 increase), usual class: activators. hit rate 0.2% among 410,000. AID 624263, 2012; active = well fitted activation curve with a large enough effect; inconclusive = small, poorly fitted or top-dose-only effect; inactive = flat fitted curve, though single readings scatter; cell line not stated here;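 note: potency is the fitted concentration of half-maximal effect; % of control where 0% means no effect; nearly all actives have a fitted effect of over 65% in size; a mitochondrial uncoupler was the plate control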
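Measures PINK1 amount and localization on or inside mitochondria by immunofluorescence. Stable cells get compounds at 5 concentrations for 24 hours before fixation and staining; CCCP controls included.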
D2 potentiator – Beta-Arrestin HTS for Positive Allosteric Modulators of the Human D2 Dopamine Receptor: Potentiators | hit rate 0.23% among 360,000 | DiscoveRx D2 beta-arrestin cells, luminescence, 90 min; 100% = 57 uM dopamine signal | potentiation, % (test concentration not listed); active = potentiation of 50% or more; inconclusive = 30% to 50%; inactive = 30% or less;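 note: compound concentration not given in the record; tested on top of an EC20 dose of dopamine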
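PathHunter D2 cells, attached overnight at 37 deg C, received compound in DMSO plus dopamine at EC20 (50 nM final) for 90 min at 37 deg C. Beta-arrestin recruitment was read as luminescence after 1 h with detection reagent at ambient temperature.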
Six1-Eya2 blk – qHTS Assay for Inhibitors of the Six1/Eya2 Interaction | Homeobox protein SIX1 (Homo sapiens) + Protein phosphatase EYA2 (Homo sapiens), … | AlphaScreen GST-Six1/His-Eya2 binding, biochemical; active compounds read low; control for the full effect not named in the record | activity change, % (concentration not given with the values) | hit rate 0.56% among 360,000 | AID 651725, 2012; in the data active = activity change below about -65%; inconclusive = about -30% to -65%; inactive = above about -30%; note: % is set by controls: 0 for no effect and ±100 for the full control effect
Target sequence (O00167 whole entry, looked up): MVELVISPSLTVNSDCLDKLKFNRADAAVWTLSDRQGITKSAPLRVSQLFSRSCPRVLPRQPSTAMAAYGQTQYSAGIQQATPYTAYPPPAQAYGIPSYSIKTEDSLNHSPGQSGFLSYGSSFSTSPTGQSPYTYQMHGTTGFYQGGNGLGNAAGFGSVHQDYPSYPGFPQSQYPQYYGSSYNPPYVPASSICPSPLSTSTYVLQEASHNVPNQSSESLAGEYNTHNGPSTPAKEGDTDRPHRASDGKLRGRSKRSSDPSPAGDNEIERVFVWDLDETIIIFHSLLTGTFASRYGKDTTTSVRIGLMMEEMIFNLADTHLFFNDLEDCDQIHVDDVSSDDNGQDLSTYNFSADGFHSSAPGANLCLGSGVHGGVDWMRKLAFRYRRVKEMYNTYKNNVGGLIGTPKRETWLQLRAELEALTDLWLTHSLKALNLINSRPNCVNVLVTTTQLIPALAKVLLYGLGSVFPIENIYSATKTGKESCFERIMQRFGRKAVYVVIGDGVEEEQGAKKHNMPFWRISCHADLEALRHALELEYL
Target sequence (Q15475 whole entry, looked up): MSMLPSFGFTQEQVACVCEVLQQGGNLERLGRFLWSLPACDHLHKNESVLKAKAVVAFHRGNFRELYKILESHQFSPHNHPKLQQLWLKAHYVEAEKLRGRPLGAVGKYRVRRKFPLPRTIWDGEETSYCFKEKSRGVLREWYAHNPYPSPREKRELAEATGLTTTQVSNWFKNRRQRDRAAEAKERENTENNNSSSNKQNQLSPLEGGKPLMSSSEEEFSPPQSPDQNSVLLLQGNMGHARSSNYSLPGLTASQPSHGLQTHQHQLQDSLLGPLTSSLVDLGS
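AlphaScreen luminescence read after one hour at 37 °C in darkness. Pin-transferred compounds met GST-Six1 and His-Eya2 protein (5X stock 250 nM/500 nM) plus glutathione donor and Ni-chelate acceptor beads (5X, 50 ug/mL).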
TRPML1 inh – qHTS for Inhibitors of the Human Mucolipin Transient Receptor Potential 1 (TRPML1); Mucolipin-1 (Homo sapiens), Q9GZU1; TRPML1-inducible cells, Ca2+ dye fluorescence, FDSS; active compounds read low; inhibition of EC80 agonist-evoked calcium signal; hit rate 0.02% among 390,000; activity change, negative = inhibition, % (concentration not given with the values); in the data active means activity change below about -50%; inconclusive means about -30% to -50%; inactive means above about -30%;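 note: stimulus is agonist 54-4 at its EC80 concentration; % is set by controls: 0 for no effect and ±100 for the full control effect; the text of the record puts the active cut at -80%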
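TRPML1-DL cells, Tet-induced overnight (~16 h, 37 °C) at 1,500 cells/well, were loaded with Ca8 no-wash dye plus quencher for 45-90 min at room temperature. Compounds were pinned during FDSS kinetic reading; agonist 54-4 at EC80 (4 uM final) then added.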
* marks the source's active call; other numbers are inactive results; ? = inconclusive; . = no result given; [ ] = remark or other dose.

SMILES	TRPML1 agonist	D2 ag	PINK1 modulator	D2 potentiator	Six1-Eya2 blk	TRPML1 inh
O=C(CNS(=O)(=O)c1ccc(Br)s1)N1CCN(C(=O)c2ccco2)CC1	0.1	-2.0	-3.3%[38.3 µM]	-6.1	0.7	-10.9
O=C1C2C3C=CC(C3)C2C(=O)N1c1cccc(N2C(=O)C3C4C=CC(C4)C3C2=O)n1 (stereo unspecified)	-0.1	-2.8	-2.4%[38.3 µM]	6.7	-0.5	11.2
NNC(=O)c1nc(Cl)c(Cl)c(N)c1Cl	1.0	-2.3	-0.4%	-8.0	-0.4	-12.3
N#CCCN(C(=O)COC(=O)CNC(=O)c1ccc(-c2ccccc2)cc1)c1ccc(F)cc1	-0.1	-4.3	0.4%	-17.0	-7.9	13.9
Cc1ccc(CN2CC(=O)N3[C@H]4c5cc(Cl)ccc5OC[C@@H]4[C@H](c4ccccc4)[C@]3(C)C2=O)cc1	0.8	-0.8	0.4%	-10.6	-16.2	53.2
CCCN1CCN(C(=S)NCc2ccc(Cl)cc2)CC1	0.3	-0.8	-0.1%	-27.0	-2.6	46.9
CS(=O)(=O)N1N=C(c2ccc(Br)cc2)CC1c1ccc2c(c1)OCO2 (stereo unspecified)	2.6	1.8	-1.9%[38.3 µM]	-10.6	0.7	9.8
O=C(CN(C(=O)CCC(=O)Nc1nccs1)c1cccc(F)c1)NCCc1ccccc1	-0.7	-1.2	3.1%	-2.1	5.4	-12.3
O=C(CSc1nc(=O)n(Cc2ccncc2)c2c1CCC2)Nc1ccccc1	-0.3	.	0.6%	.	.	-18.5
COCCN(CCOC)Cc1c(O)ccc2c1O/C(=C\c1ccc(C)o1)C2=O	11.6	1.3	0.7%	-1.5	-1.4	-3.9
CCc1ccc(NC(=O)c2sc3nc(-c4ccccc4)cn3c2C)cc1	1.9	.	4.2%	.	.	-23.3
COc1ccc(NC2=CC(c3ccc(OC)c(OC)c3)N(c3ccc(OC)cc3)C2=O)cc1 (stereo unspecified)	0.8	-0.4	2.2%	-3.7	-7.6	-1.9
Cc1ccc(C(=O)O)cc1-n1c(C)cc(C=O)c1C	0.8	2.0	-2.6%	-5.2	-16.0	-18.2
CCN(c1cccc(C)c1)S(=O)(=O)c1ccc(-c2ccc(=O)[nH]n2)o1	0.7	2.9	5.2%	-2.5	3.2	-1.7
CC(=O)N1N=C(c2cccc(NS(C)(=O)=O)c2)CC1c1ccc2c(c1)OCO2 (stereo unspecified)	0.0	-5.0	0.3%	-2.4	5.3	12.9
COc1cccc(-c2cc(C(F)(F)F)n3nc(C(=O)N4CCCCC4c4cccnc4)cc3n2)c1 (stereo unspecified)	0.8	9.6	9.0%	-17.7	2.2	18.1
CC(C)c1ccc(C2c3c(-c4ccccc4O)n[nH]c3C(=O)N2CCc2ccccc2)cc1 (stereo unspecified)	1.4	.	1.1%	.	.	15.7
Cc1cccc(-c2ccc3[nH]c4c(c3c2)CCN2C[C@@H]([C@H](C)O)[C@@H](N(C)C(=O)Nc3ccc(F)cc3)C[C@@H]42)c1	0.0	-3.3	-1.0%	1.9	-18.1	-9.3
COC(=O)c1sccc1NC(=O)c1ccccc1F	0.7	2.7	-0.2%	5.9	10.0	65.6
NC(=O)c1ccsc1NC(=O)CS(=O)(=O)c1ccccc1	-0.4	-4.5	-1.2%	-3.9	-0.8	-0.2
CCOC(=O)c1c(NC(=O)/C=C/c2ccco2)sc(C)c1C	-0.3	-0.4	1.5%	-17.4	28.7	0.7
CCc1cc2c(=O)[nH]c(N3CCCC3)nc2s1	-0.3	-7.2	0.3%	-4.5	6.5	19.5
CCCCN1CCC(CN2C(=S)NC[C@@H]2CC(C)C)CC1	-0.4	-5.8	-0.7%	-20.5	-0.1	-8.8
Cc1cc(C)n(CC(O)CN2c3ccccc3Sc3ccccc32)n1 (stereo unspecified)	2.3	-2.4	3.2%	-4.7	-20.0	26.6
Cc1nc2ccc(C(=O)N3CCC(O)(Cc4ccccc4)CC3)cn2c1N(C)C(=O)CCc1ccccc1	-0.4	-0.9	-0.1%	0.8	10.9	.
SMILES	TRPML1 agonist	D2 ag	PINK1 modulator	D2 potentiator	Six1-Eya2 blk	TRPML1 inh
COc1ccc(C)cc1S(=O)(=O)NC1CCCCCC1	-0.6	1.2	-0.6%	7.0	2.0	-11.7
CCOC(=O)C1CCN(S(=O)(=O)c2ccc(Cl)cc2OC)CC1	0.1	-1.2	?	-11.7	3.6	-7.3
O=c1ccc(-c2ccccc2)no1	-0.2	-0.5	1.3%	-6.1	-3.5	4.4
CC(=O)N1CCOc2ccc(S(=O)(=O)N3CCC(C(=O)Nc4cc(C)cc(C)c4)CC3)cc21	1.3	-1.7	0.7%	-23.4	-2.6	-2.2
O=C(Nc1cccc(NC(=O)c2ccco2)c1)c1ccc([N+](=O)[O-])cc1	-0.2	2.8	5.2%	5.2	0.4	-0.5
COc1ccc(OC)c(C2N=C(N)Nc3nc4ccccc4n32)c1 (stereo unspecified)	-0.3	.	2.9%	.	.	-17.0
O=C(Cn1c(=O)[nH]c2ccsc2c1=O)NC1CCCCCC1	-0.7	-1.2	5.2%[38.3 µM]	-12.5	5.3	-9.3
c1ccc(-n2ncc3c(NC4CCCCCC4)ncnc32)cc1	0.1	-2.9	7.1%	-3.1	-1.5	2.2
COCc1cc(C)nc(Nc2ccccc2OC)c1C#N	.	-8.1	4.8%	-15.6	16.4	.
CC(NC(=O)Cc1c(F)cccc1Cl)C1CCCO1 (stereo unspecified)	-0.3	-3.1	7.6%[38.3 µM]	-4.2	4.3	20.8
Cc1cc(C)cc(Nc2cc(C(=O)NC3CCCCC3)c3ccccc3n2)c1	0.8	.	1.8%	.	.	3.3
Cc1sc2nc(SCC(=O)NCCO)n(-c3ccccc3)c(=O)c2c1C	-0.3	-3.0	1.5%	-1.4	1.8	3.4
Oc1ccccc1-c1nnc2n1CCCCC2	-1.0	-0.7	0.8%	-9.9	0.0	27.9
CCOc1ccc(OCC)c(NS(=O)(=O)c2cn(C)cn2)c1	0.9	-0.3	-1.5%	-7.1	-5.9	50.0
O=C1N=C(N2CCCCC2)S/C1=C\c1ccc(Cl)cc1	1.5	-4.4	1.4%	-3.3	6.9	10.2
O=C(Cc1ccccc1Cl)c1ccccc1	3.1	-0.6	-1.3%	-6.5	6.5	-2.1
O=C(NCCN1CCOCC1)Nc1ccccc1	0.4	-0.6	0.5%	-16.1	0.8	12.0
Cc1c(-c2cc(Br)ccc2O)nc2cc3c(cc2c1C)OCO3	0.7	3.4	?	-10.9	1.3	-15.4
O=c1[nH]c(-c2ccco2)nc2sc3c(c12)CCCC3	0.9	0.5	-0.7%	-6.8	1.7	-7.0
COc1nc(C)c2cc(C)oc2n1	-0.1	-2.5	0.2%	-5.5	-5.8	-9.1
CCOC(=O)C1=C(C)NC(C)=C(C(=O)OCC)C1C(=O)OCC(=O)N(C)C1CCS(=O)(=O)C1 (stereo unspecified)	-1.1	-6.6	1.9%	5.6	0.0	25.9
Cc1cc(C(=O)NN)c(C)o1	1.4	-1.6	0.4%	-31.8	-6.0	8.4
CCOc1ccc(NC(=O)c2cc3cc4cc(OC)ccc4nc3s2)cc1	-0.6	.	6.8%	.	.	51.3
O=[N+]([O-])c1ccc2nc(-c3ccccn3)[nH]c2c1	-0.2	9.1	-0.5%	4.8	-72.6*	12.0
CCN=C1SC(C(=O)Nc2cccc(C(=O)O)c2)CC(=O)N1CC (stereo unspecified)	0.0	-3.9	-1.8%	-0.3	5.3	17.6

Exported with values under each structure: entries from further up.
Results follow in this order: TRPML1 agonist	D2 ag	PINK1 modulator	D2 potentiator	Six1-Eya2 blk	TRPML1 inh
COc1ccc(C)cc1S(=O)(=O)NC1CCCCCC1
    -0.6	1.2	-0.6%	7.0	2.0	-11.7
CCOC(=O)C1CCN(S(=O)(=O)c2ccc(Cl)cc2OC)CC1
    0.1	-1.2	?	-11.7	3.6	-7.3
O=c1ccc(-c2ccccc2)no1
    -0.2	-0.5	1.3%	-6.1	-3.5	4.4
CC(=O)N1CCOc2ccc(S(=O)(=O)N3CCC(C(=O)Nc4cc(C)cc(C)c4)CC3)cc21
    1.3	-1.7	0.7%	-23.4	-2.6	-2.2
O=C(Nc1cccc(NC(=O)c2ccco2)c1)c1ccc([N+](=O)[O-])cc1
    -0.2	2.8	5.2%	5.2	0.4	-0.5
COc1ccc(OC)c(C2N=C(N)Nc3nc4ccccc4n32)c1 (stereo unspecified)
    -0.3	.	2.9%	.	.	-17.0
O=C(Cn1c(=O)[nH]c2ccsc2c1=O)NC1CCCCCC1
    -0.7	-1.2	5.2%[38.3 µM]	-12.5	5.3	-9.3
c1ccc(-n2ncc3c(NC4CCCCCC4)ncnc32)cc1
    0.1	-2.9	7.1%	-3.1	-1.5	2.2
COCc1cc(C)nc(Nc2ccccc2OC)c1C#N
    .	-8.1	4.8%	-15.6	16.4	.
CC(NC(=O)Cc1c(F)cccc1Cl)C1CCCO1 (stereo unspecified)
    -0.3	-3.1	7.6%[38.3 µM]	-4.2	4.3	20.8
Cc1cc(C)cc(Nc2cc(C(=O)NC3CCCCC3)c3ccccc3n2)c1
    0.8	.	1.8%	.	.	3.3

Following part:
SMILES	TRPML1 agonist	D2 ag	PINK1 modulator	D2 potentiator	Six1-Eya2 blk	TRPML1 inh
NS(=O)(=O)c1ccc(CCNC(=O)CSc2nnc3ccccn23)cc1	3.8	-1.1	-0.4%	12.5	6.8	11.2
O=C1Nc2ccccc2C(=O)N2c3ccccc3NC(=O)C12 (stereo unspecified)	-0.3	-3.6	1.8%	-6.3	4.5	.
O=C(O)c1ccc2c(c1)N(Cc1ccccc1)C(=O)c1ccccc1S2	0.5	-1.2	-1.2%	-2.1	-2.2	3.8
CC1(Cc2ccc(F)c(Cl)c2)C(=O)Nc2c(Cl)cccc21 (stereo unspecified)	-0.7	6.5	1.4%	-7.7	-1.2	.
O=C1C2=C(Nc3ccccc3SC2c2ccc(Cl)c(Cl)c2)c2ccccc21 (stereo unspecified)	0.6	.	?	.	.	3.9
CC(=O)c1cc2cc(O)ccc2o1	1.5	-1.6	-1.4%	-9.0	-1.2	1.2
CCOC(=O)C(/C=N/c1cc(C)nn1-c1ccccc1)=C(\C)O	0.5	0.1	-2.4%	2.4	0.0	-8.3
CCOc1ccc(-n2c(SCC(=O)Nc3cccc(Cl)c3)nc3c(oc4ccccc43)c2=O)cc1	1.0	.	3.6%	.	.	-12.8
